VDR inhibitor = Inhibitors of the vitamin D receptor (VDR): qHTS. Vitamin D3 receptor (Homo sapiens), P11473. VDR-SRC2-3 peptide fluorescence polarization, 2 h. Potency, µM, without a hit: max response, negative = inhibition, actives largely listed as inhibitors. 400,000 compounds, 0.93% hits. AID 504847, 2011; active = well fitted inhibition curve with a large enough effect; inconclusive = small, poorly fitted or top-dose-only effect, or another doubt; inactive = no such curve, though single readings can be large or run the other way; note: series mostly up to about 120 µM
Target sequence (P11473 whole entry, looked up): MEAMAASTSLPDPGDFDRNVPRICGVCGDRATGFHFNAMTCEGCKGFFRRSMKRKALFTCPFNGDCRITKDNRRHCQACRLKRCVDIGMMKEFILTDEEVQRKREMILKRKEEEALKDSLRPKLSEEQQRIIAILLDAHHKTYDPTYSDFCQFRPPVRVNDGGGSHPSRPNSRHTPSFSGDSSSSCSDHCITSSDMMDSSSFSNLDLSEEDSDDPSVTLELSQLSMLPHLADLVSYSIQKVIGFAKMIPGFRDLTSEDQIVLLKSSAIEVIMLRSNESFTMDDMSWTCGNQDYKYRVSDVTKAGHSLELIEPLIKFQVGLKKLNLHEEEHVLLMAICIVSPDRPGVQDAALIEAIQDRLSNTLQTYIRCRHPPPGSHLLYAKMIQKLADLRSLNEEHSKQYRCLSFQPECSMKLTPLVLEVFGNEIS
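Fluorescence polarization assay of small-molecule disruption of VDR binding to coregulator peptide SRC2-3. Compounds and controls pin-transferred, then read after 2 h incubation at ambient room temperature.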
Starred values were filed as active, the others as inactive; ? = inconclusive. % is set by controls: 0 for no effect and ±100 for the full control effect; potency is the fitted concentration of half-maximal effect. An excerpt (hit frequency here may not be typical).

#	SMILES	VDR inhibitor
1	COC(=O)c1cc(S(=O)(=O)NC2CCCCC2)cn1C	-13%
2	Cc1ccc(C(=O)c2c3ccccc3[n+]([O-])n2[C@@H](C)C(N)=O)cc1	-9%
3	C[C@H](CO)N1C[C@H](C)[C@@H](CN(C)C)Oc2c(NC(=O)CCCCCC(=O)Nc3ccccc3N)cccc2C1=O	3%
4	Cc1ccc(-c2nc3ccc(Cl)cc3c(=O)n2O)cc1	-9%
5	C=CCn1c2ccccc2c2nnc(SCC(N)=O)nc21	-8%
6	C(=N\n1cnnc1)/c1ccc2c(c1)OCCO2	4%
7	COCCNC(=O)C(c1ccc(F)cc1)N(Cc1ccccc1)C(=O)CCC(=O)Nc1ccccn1 (centres undefined)	-9%
8	O=C(Nc1c(Cl)cccc1Cl)c1cc(=O)n(Cc2ccccc2)c(=O)[nH]1	0%
9	OCCCNCc1cccc2ccccc12	18%
10	O=C1NC(=O)C2(CCCCCC2)N1	-6%
11	NC(=O)c1ccccc1NC(=O)/C=C/C(=O)O	-11%
12	C/C(=N\NC(=O)Cc1ccccc1)c1cccnc1	-11%
13	O=C1c2[nH]nc(-c3ccccc3O)c2C(c2ccc(F)cc2)N1CC1CCCO1 (centres undefined)	-21%
14	O=C(Cc1ccc(S(=O)(=O)N2CCCCC2)s1)Nc1cccc2ccccc12	-11%
15	COc1ccccc1-c1csc(Cc2nnc3n2CCCCC3)n1	2%
16	Cc1ccc(NC(=O)CSc2cn(CC(=O)N3CCCCCC3)c3ccccc23)cc1	19%
17	CN(Cc1ccccc1)C(=O)c1[nH]cnc1C(=O)NCCCCCNC(=O)OC(C)(C)C	-27%
18	COc1ccc(CN(C(=O)c2cc(=O)c3cc(C)cc(C)c3o2)C2CCS(=O)(=O)C2)cc1 (centres undefined)	-10%
19	O=C(CCn1c(=O)c2ccccc2n(CC(=O)NC2CCCC2)c1=O)NCCc1ccc(Cl)cc1	8%
20	O=C(c1ccc(C(=O)N2CCCc3ccccc32)s1)N1CCCc2ccccc21	6%
21	CC(C)CNC(C)C(=O)Nc1ccc(S(N)(=O)=O)cc1 (centres undefined)	9%
22	COc1ccc(-c2csc(NC(=O)c3ccccc3S(C)(=O)=O)n2)cc1	-4%
23	COc1ccc(OC)c(NC(=O)CSc2nnc(-c3ccco3)n2-c2ccc(C(=O)O)cc2)c1	5%
24	C/C(=N\OCC(=O)NCC(F)(F)F)c1cc2ccccc2o1	-8%
25	O=C(O)CC1SC(N/N=C/c2ccc(Br)cc2)NC1=O (centres undefined)	14%
26	CCC(C)(C)C1CCc2[nH]nc(C(=O)NC(C)C)c2C1 (centres undefined)	-11%
27	CCCCOC(=O)C1C2C=CC3(CN(CCc4ccccc4)C(=O)C13)O2 (centres undefined)	-2%
28	O=C(CSc1ccc2c(c1)OCCO2)NCCc1ccc(Cl)cc1Cl	?
29	Cc1c(Cl)cccc1NC(=O)c1ccco1	-5%
30	Cn1c(C(=O)O)c(CC(=O)NCC2COc3ccccc3O2)c2ccccc21 (centres undefined)	-1%
31	COc1ccc(NC(=O)COC(=O)CCNS(=O)(=O)c2ccc(Cl)cc2)cc1	-14%
32	Cc1ccc2[nH]c3c(c2c1)CCN1C(=O)OC(C)(C)C31C (centres undefined)	-2%
33	COCCCNC(=O)c1ccccc1N(Cc1ccccc1)S(=O)(=O)c1ccccc1	-29%
34	CC(=O)N1CCN(S(=O)(=O)c2ccccc2)C1c1ccccc1 (centres undefined)	-4%
35	COc1ccc(CC(=O)N2CCc3cc(OC)c(OC)cc3C2COc2ccc3c(C)cc(=O)oc3c2)cc1OC (centres undefined)	22%
36	COc1ccc(NC(=O)c2ccc(C#CC(C)(C)O)cc2)cc1	4%
37	O=c1oc2ccc(Cl)cc2cc1-c1nnc(Nc2cccc(C(F)(F)F)c2)s1	-12%
38	CCc1ccc(N(CC(=O)NC2CCCCC2)C(=O)CCC(=O)Nc2ccccn2)cc1	-3%
39	CC(C)c1ccc(CNc2c([N+](=O)[O-])c(=O)oc3ccccc23)cc1	-5%
40	Cc1cccc(N2C(=O)c3cccc4c(N(C)CCO)ccc(c34)C2=O)c1	-1%
41	COc1ccc(C(=S)N2CCN(S(=O)(=O)c3ccccc3)CC2)cc1	-13%
42	CCn1c(C)c(C(C)=O)c(N2CCN(C(c3ccccc3)c3ccccc3)CC2)nc1=S	-22%
43	S=C1NCCC12C(=S)Nc1ccccc12 (centres undefined)	7%
44	N#Cc1cccc(NC(=O)N2CCCC3(CCN(C(=O)c4ccncc4)CC3)C2)c1	14%
45	O=C(c1cccc(S(=O)(=O)Nc2ccc(Br)cc2)c1)N1CCC1	9%
46	COc1ccc(CCNC(=O)CS(=O)(=O)c2cn(CC(=O)N3CCCC3)c3ccccc23)cc1OC	12%
47	Cc1ccc(C(=O)N(CC(=O)NC2CCCC2)c2cccc(F)c2)s1	-15%
48	CCC1CCc2sc(C(=O)NCC(c3ccc(OC)cc3)N3CCCC3)cc2C1 (centres undefined)	?

A different layout for part of the listing above.
40. Cc1cccc(N2C(=O)c3cccc4c(N(C)CCO)ccc(c34)C2=O)c1
  VDR inhibitor: -1%

25. O=C(O)CC1SC(N/N=C/c2ccc(Br)cc2)NC1=O (centres undefined)
  VDR inhibitor: 14%

32. Cc1ccc2[nH]c3c(c2c1)CCN1C(=O)OC(C)(C)C31C (centres undefined)
  VDR inhibitor: -2%

Other records:
#	SMILES	VDR inhibitor
49	CC(C)CC1Nc2ncnc(N3CCN(c4ccccc4)CC3)c2N(Cc2ccc(Br)cc2)C1=O (centres undefined)	0%
50	NC(=O)c1cc(NC(=O)COC(=O)CCCN2C(=O)c3cccc4cccc(c34)C2=O)cc(C(N)=O)c1	28%
51	COc1ccc(N2CCN(CCCNC(=O)c3cnn(-c4ccc(C)cc4)c3-n3cccc3)CC2)cc1	13%
52	N#Cc1nc(-c2ccc(OCc3ccc(Cl)cc3)cc2)oc1N1CCCC1	-18%
53	CC1(C)Cc2c(sc3c2c2ncnn2c2nnc(SCC(=O)NCc4ccco4)n32)CO1	15%
54	CNc1nc2c(c(=O)[nH]c(=O)n2C)n1CCCc1ccccc1	-24%
55	CN1CCc2c(sc3c2C(=O)NC(c2ccccc2)N3)C1 (centres undefined)	71µM*
56	c1cc(-c2nnc3sc(C4CCCCC4)nn23)ccn1	-8%
57	Cn1c(-c2sc3cc(C(F)(F)F)cnc3c2-c2ccccc2)n[nH]c1=S	5%
58	CCOc1cc(/C=N\NC(=O)OC(C)(C)C)ccc1OC(=O)c1ccco1	-17%
59	CSCc1cc(N2CCOCC2)nc(SCc2ccc(Cl)cc2Cl)n1	-12%
60	COc1cc(OC)c(C(=O)OCC(=O)Nc2ccccc2Cl)cc1OC	-17%
61	CC(=O)n1cc(/C=N/NC(=O)c2cccc(O)c2)c2ccccc21	-24%
62	CCN(CC)S(=O)(=O)c1ccc(N2CC(C(=O)NCCc3c[nH]c4ccccc34)CC2=O)cc1 (centres undefined)	-25%
63	CCCCOCCCNC(=O)C1c2ccccc2Oc2ccccc21	-16%
64	O=c1c2c3c(sc2ncn1/N=C/c1ccc([N+](=O)[O-])o1)CCCC3	8%
65	Cc1ccc(CNC(=O)[C@]2(C)CCC[C@@]3(C)C4CC[C@@]5(C)C[C@]4(CCC32)CC5=O)cc1 (some centres undefined)	-12%
66	COc1ccc(C2/C(=C(/O)c3ccc4c(c3)CC(C)O4)C(=O)C(=O)N2CCN2CCOCC2)cc1OC (centres undefined)	-4%
67	O=C(c1ccc(CSc2ccccc2)cc1)N1CCN(c2ccccc2)CC1	12%
68	CCCNC(=O)C(=O)N/N=C/c1cccs1	-15%
69	COc1ccc(CNC(=O)C2CCN(c3cc(C(=O)Nc4cccc(OC)c4)ccn3)CC2)cc1	5%
70	CCN(CC)S(=O)(=O)c1csc(C(=O)OCC(=O)c2ccccc2)c1	7%
71	Cc1ccc(S(=O)(=O)CCC(=O)NCc2ccco2)cc1	-10%
72	Cc1ccc(CC2CC(=O)N(c3cc(C)on3)C2=O)cc1 (centres undefined)	-8%

A different layout for some results above.
69) COc1ccc(CNC(=O)C2CCN(c3cc(C(=O)Nc4cccc(OC)c4)ccn3)CC2)cc1
  VDR inhibitor = 5%
67) O=C(c1ccc(CSc2ccccc2)cc1)N1CCN(c2ccccc2)CC1
  VDR inhibitor = 12%
68) CCCNC(=O)C(=O)N/N=C/c1cccs1
  VDR inhibitor = -15%

Going on with the list:
#	SMILES	VDR inhibitor
73	Cn1c(SCc2nn[nH]n2)nc2c1c(=O)n(Cc1ccccc1Cl)c(=O)n2C	9%
74	CCOc1ccc(C2OCCC(C)O2)cc1OC (centres undefined)	1%
75	COc1ccc(NC(=O)CSc2nnc(-c3cc(C)[nH]n3)n2N)cc1OC	-10%
76	Cc1ccc(Sc2cc(C(=O)NCCCN(C)C)c3ccccc3n2)cc1	-4%
77	CC(=O)N1CCCc2cc(S(=O)(=O)N3CCCC(C(=O)Nc4ccc(C)c(F)c4)C3)ccc21 (centres undefined)	14%
78	COc1ccc(N2C(=O)N3[C@H](c4cccc(C)c4)[C@@H]4C(=O)N(Cc5ccccc5)C(=O)[C@@H]4[C@]3(Cc3ccccc3)C2=O)cc1	-10%
79	CCN(CC)S(=O)(=O)c1ccc2c(c1)oc(=O)n2CC(=O)N(C)C1CCCCC1	25%
80	Cc1nnsc1S(=O)c1ccc(F)cc1 (centres undefined)	18%
81	COCCOC(=O)c1c(C)oc2ccc(OCc3ccccc3)cc12	-3%
82	Cc1sc2nc(SC(C)C)nc(N)c2c1C	26%
83	CC1CC(C)CN(S(=O)(=O)c2cc3c4c(c2)CCN4C(=O)CC3)C1 (centres undefined)	-8%
84	CCc1ccc[n+](-c2[nH]c(=O)sc2/C=N/N=C(\[O-])c2ccncc2)c1	12%
85	CCOC(=O)c1c(C)nn(-c2ccc(NC(=O)c3cccs3)cc2)c1C	21%
86	CC(=O)c1ccc2c(c1)Cc1cc(C(C)=O)ccc1-2	-2%
87	N#Cc1c(SCC(N)=O)nsc1SCc1ccc(Cl)cc1	5%
88	COc1ccc(CN2CCC3CC2c2cc(Cl)ccc23)cc1 (centres undefined)	10%
89	O=C(CCc1ccncc1)NC1CCCc2c1cnn2-c1cc(F)cc(F)c1 (centres undefined)	-4%
90	CCOC(=O)C1CCN(c2nc3c(S(=O)(=O)c4ccccc4)nnn3c3ccsc23)CC1	11%
91	COC(=O)c1ccccc1N1C(=O)[C@@H]2C(c3ccc(F)cc3)=NO[C@@H]2C1=O	-8%
92	COc1ccc2nc(SCC(=O)Nc3ccc4[nH]c(=O)[nH]c4c3)[nH]c2c1	-4%
93	COc1ccc(S(=O)(=O)N2Cc3ccccc3CC2C(=O)N2CCOCC2)cc1 (centres undefined)	14%
94	O=C(COC(=O)c1ccccc1OC(F)F)Nc1ccc(N2CCCCC2)cc1	5%
95	Cc1ccc(CNC(=O)C2CCC(CNS(=O)(=O)c3ccc4c(c3)CCCC(=O)N4)CC2)cc1 (centres undefined)	-4%
96	Nc1n[nH]c(-c2ccc([N+](=O)[O-])cc2[N+](=O)[O-])n1	4%
97	CN(C)CCCNC(=O)c1ccc(-c2cc(O)c3ncccc3c2)cc1	-5%
98	CCOC(=O)C1C(c2ccccc2)N(C)OC1(O)C(F)(F)F (centres undefined)	5%
99	COC(=O)C1CN(C(=O)C(C)Oc2ccc(C(C)C)cc2)c2ccccc2O1 (centres undefined)	-12%
100	CC(=O)N1N=C(c2ccccc2O)OC1(C)CC(=O)Nc1ccccc1 (centres undefined)	4%
101	CCN(c1ccc(OC)cc1)S(=O)(=O)c1nnc(NC(=O)C(C)C)s1	11%
102	O=[N+]([O-])c1ccc(NC(=S)N2CCN(c3ccccn3)CC2)cc1	-18%
103	O=C(Nc1ccccc1Cl)c1cnccn1	-3%
104	O=C(O)c1ccc(S(=O)(=O)N2CCCC2)cc1	-14%
105	Cc1cc(=O)[nH]c(NN=Cc2cc(Br)ccc2O)n1	18%
106	CC(=O)Nc1ccc(NC(=O)CSc2ccc(C)cc2)cc1	-2%
107	CCCCc1nc(NCCO)c(C#N)c2c1CCCC2	5%
108	Cc1ccc(SCC(=O)Nc2oc(C)c3c(C)n[nH]c(=O)c23)cc1C	-28%
109	Cc1nn(CC(=O)NCc2cccnc2)c(C)c1[N+](=O)[O-]	6%
110	CCOC(=O)C1=NN(c2ccccc2)C2=NC(C)=C(C(=O)OC)C(c3cccs3)N12 (centres undefined)	?
111	Cc1ccc(-n2nc3c(N4CCC(C(=O)NCCc5ccccc5)CC4)nnc(C)c3c2C)cc1	6%
112	Cc1ccc(C)c(NS(=O)(=O)c2cc3c4c(c2)C(C)C(=O)N4CCC3)c1 (centres undefined)	13%
113	COC(=O)C1=C(C)NC(=S)NC1c1sccc1C (centres undefined)	-15%
114	Cc1ccnc(Nc2nc(-c3ccc(O)c(O)c3)cs2)c1	-4%
115	O=C(Oc1ccccc1)N1CCCC1	7%
116	CC(NCc1cc(Br)ccc1OCC(N)=O)C12CC3CC(CC(C3)C1)C2 (centres undefined)	?
117	CCC(=O)c1ccc(OCc2ccc(C(=O)OC)cc2)cc1	15%
118	CCS(=O)(=O)N1CCC(C(=O)Nc2ccc3c(c2)CCC3)CC1	7%
119	Cc1sc2nc3c4ccccc4c(NCc4ccco4)nn3c(=O)c2c1C	3%
120	CC(C)(C)OC(=O)C[C@@H]1C/C=C\C[C@@H](CC(=O)N[C@@H](CO)Cc2ccccc2)C(=O)N2CCC[C@H]2COC1=O	-2%
121	CC(=O)c1c(N2CCN(c3ccccn3)CC2)nc(=S)n(-c2ccccc2)c1C	4%

Source: PubChem BioAssay (National Center for Advancing Translational Sciences (NCATS))
